Compound activity as filed in PubChem.
gsp antagonist – qHTS for Antagonists of gsp, the Etiologic Mutation Responsible for Fibrous Dysplasia/McCune-Albright Syndrome: qHTS; Potency, µM (series often up to 76.9 µM), without a hit: at the top dose activity change, negative = inhibition, usual class: inhibitors; hit rate 0.4% among 340,000; AID 624288, 2012; gsp-mutant cells, cAMP HTRF, 30 min; control for the full effect not named in the record; active = falling curve of any shape with a large fitted effect; inconclusive = falling curve, mostly with a smaller effect; inactive = flat or rising curve; cell line not stated here;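 note: intracellular cAMP measured with PDE inhibitor Ro 20-1724 present during compound exposure; potency is the fitted concentration of half-maximal effect; % is set by controls: 0 for no effect and ±100 for the full control effect; nearly all actives have a fitted effect of over 65% in size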
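Measurement of cellular cAMP by homogeneous time-resolved fluorescence following a 30 min compound exposure at 37C. The PDE inhibitor […] was present throughout; the assay buffer was DPBS with 0.05% BSA and 0.005% Tween 20.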
Menin-MLL FL inh – qHTS Assay for Inhibitors Targeting the Menin-MLL Interaction in MLL Related Leukemias: Competition With Fluorescein Labeled MLL-derived Peptide | Fluorescence polarization, fluorescein-MLL peptide displacement from menin | FP activity change, % at 61.4 µM | 290,000 tested, under 10 active | AID 1766, 2009; inconclusive = falling polarisation curve, or a change in total fluorescence; inactive = total fluorescence flat and polarisation flat or rising; no compound was filed as active; the % refers to the polarisation; negative = inhibition;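 note: % of control where 0% means no effect; inhibitors lower the polarisation; unlabelled MLL peptide was the positive control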
gsp agonist – qHTS for Agonist of gsp, the Etiologic Mutation Responsible for Fibrous Dysplasia/McCune-Albright Syndrome: qHTS; Potency, µM (series often up to 76.9 µM), for the others: at the highest dose activation (cAMP increase), actives largely listed as activators; AID 624287, 2012; hit rate 0.13% among 340,000; gsp mutant cells, cAMP HTRF, 30 min; control for the full effect not named in the record; active = well fitted activation curve with a large enough effect; inconclusive = small, poorly fitted or top-dose-only effect, or another doubt; inactive = no such curve, though single readings can be large or run the other way; cell line not stated here;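 note: phosphodiesterase inhibitor Ro 20-1724 added with compounds to block cAMP breakdown; potency is the fitted concentration of half-maximal effect; nearly all actives have a fitted effect of over 60% in size; about a fifth of the inactives were tested at one dose only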
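Cells in DMEM/10% FBS with G418 were pretreated with compounds in DMSO plus […] (300 uM stock) for 30 min at 37C. cAMP was measured by HTRF (cAMP-d2 plus anti-cAMP antibody-K) after 30 min at room temperature.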
Sfp PPTase inh – qHTS Assay for Inhibitors of Bacillus subtilis Sfp phosphopantetheinyl transferase (PPTase) | hit rate 3.5% among 310,000 | AID 1490, 2009 | Biochemical Sfp PPTase activity, qHTS | Potency, µM, without a hit: max response, negative = inhibition, usual class: inhibitors; active = well fitted inhibition curve with a large enough effect; inconclusive = small, poorly fitted or top-dose-only effect, or another doubt; inactive = no such curve, though single readings can be large or run the other way;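 note: the enzyme is Sfp with the accession as filed and its product quenches rhodamine fluorescence; potency is the fitted concentration of half-maximal effect; 0% = enzyme reaction without inhibitor and -100% = no enzyme wells; top concentration of the series not given in the record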
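Fluorescence-quenching assay: 15 nM Sfp-PPTase preincubated 15 min at room temperature with compound, then 5 uM rhodamine-CoA and 12.5 uM BHQ-2-labelled YbbR peptide added. Fluorescence (ex 525/em 598 nm) read at start and after 30 min; difference gives rate.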
ClpP mod – qHTS Assay for Activators of ClpP; ATP-dependent Clp protease proteolytic subunit (Bacillus subtilis (strain 168)), P80244; Potency, µM (doses to about 57.5 µM), without a hit: top-dose activity change, negative = active; purified B. subtilis ClpP, FRET peptide cleavage, 20 min; AID 651965, 2013; hit rate 1.9% among 340,000; active = well fitted falling curve with a large enough effect; inconclusive = small, poorly fitted or top-dose-only effect; inactive = no such curve, though single readings can be large or run the other way; note: potency is the fitted concentration of half-maximal effect; the source files actives as falling curves though it sought activators and does not explain the sign; nearly all actives have a fitted effect of over 65% in size; many hits overshoot -100%
Target sequence (P80244 whole entry, looked up): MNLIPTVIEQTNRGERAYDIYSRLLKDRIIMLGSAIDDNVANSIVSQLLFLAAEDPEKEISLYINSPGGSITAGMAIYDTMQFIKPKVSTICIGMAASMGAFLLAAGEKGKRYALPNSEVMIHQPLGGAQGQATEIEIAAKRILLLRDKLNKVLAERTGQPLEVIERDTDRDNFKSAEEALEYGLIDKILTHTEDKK
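Purified B. subtilis ClpP, 10 microg/mL final in Tris/HCl pH8 with KCl, BSA, glycerol and Tween-20, cleaved an Abz/nitrotyrosine-quenched decapeptide. Fluorescence (ex 320, em 430) was read at 0 and 20 min at room temperature. Delta was normalized to 5.8 microM ADEP and DMSO/no-enzyme controls.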
D2 potentiator – Beta-Arrestin HTS for Positive Allosteric Modulators of the Human D2 Dopamine Receptor: Potentiators; potentiation, % (concentration not given with the values); DiscoveRx D2 beta-arrestin cells, luminescence, 90 min; 100% = 57 uM dopamine signal; D(2) dopamine receptor (Homo sapiens), P14416; hit rate 0.23% among 360,000; active = potentiation of 50% or more; inconclusive = 30% to 50%; inactive = 30% or less;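 note: compound concentration not given in the record; tested on top of an EC20 dose of dopamine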
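D2 cells co-treated with compound plus 50 nM dopamine (EC20) for 90 min at 37 deg C to detect potentiation. Beta-arrestin recruitment was read as enzyme-fragment luminescence after 1 h at ambient temperature. Full response was set by 57 uM dopamine.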
TRPV1 potentiator – HTS Assay for Compounds that Act as Potentiators of the Vanilloid Receptor 1 | hit rate 0.02% among 320,000 | AID 540277, 2011 | potentiation, % at 8.33 µM | Transient receptor potential cation channel subfamily V member 1 (Homo sapiens), Q8NER1 | TRPV1-expressing cells, Fluo-8 calcium influx, capsaicin EC20 potentiation; host cell line not named in the record; control for the full effect not named in the record; active means potentiation above 80%; inconclusive means 30% to 80%; inactive means below 30%; note: 0% is about no effect
Target sequence (Q8NER1 whole entry, looked up): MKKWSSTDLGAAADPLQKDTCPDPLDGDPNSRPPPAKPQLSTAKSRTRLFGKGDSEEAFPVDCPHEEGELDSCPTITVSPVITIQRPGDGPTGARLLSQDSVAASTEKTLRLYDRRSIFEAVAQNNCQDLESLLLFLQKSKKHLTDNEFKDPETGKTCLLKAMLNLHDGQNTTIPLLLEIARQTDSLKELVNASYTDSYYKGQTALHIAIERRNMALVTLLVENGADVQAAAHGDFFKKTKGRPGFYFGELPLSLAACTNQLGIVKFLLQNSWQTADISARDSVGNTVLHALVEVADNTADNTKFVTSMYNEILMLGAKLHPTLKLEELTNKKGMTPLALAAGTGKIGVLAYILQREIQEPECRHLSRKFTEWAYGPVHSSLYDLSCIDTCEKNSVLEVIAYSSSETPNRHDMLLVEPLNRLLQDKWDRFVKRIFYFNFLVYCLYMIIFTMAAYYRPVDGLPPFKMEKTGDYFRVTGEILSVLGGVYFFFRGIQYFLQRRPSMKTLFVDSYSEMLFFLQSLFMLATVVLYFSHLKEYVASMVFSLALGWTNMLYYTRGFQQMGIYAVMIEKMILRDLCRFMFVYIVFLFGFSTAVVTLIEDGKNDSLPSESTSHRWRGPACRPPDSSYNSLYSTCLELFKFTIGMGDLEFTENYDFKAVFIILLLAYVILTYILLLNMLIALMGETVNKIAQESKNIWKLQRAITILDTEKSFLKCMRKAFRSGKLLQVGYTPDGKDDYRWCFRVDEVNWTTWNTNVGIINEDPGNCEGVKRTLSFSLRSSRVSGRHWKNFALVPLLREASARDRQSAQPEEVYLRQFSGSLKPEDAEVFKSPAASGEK
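Cells expressing TRPV1 were dye-loaded with Fluo-8 and read kinetically: 10 s baseline, 3 min after compound (agonist portion), then 2 min after EC20 capsaicin (allosteric enhancer portion). Calcium-bound dye fluorescence at 480/520 nm.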
Starred values were filed as active, the others as inactive; ? = inconclusive; / = no result given; & = joins results of further samples; [ ] = dose if it differs, or a comment. Compounds as they come; overall some 5.1% were active at least once.

SMILES	gsp antagonist	Menin-MLL FL inh	gsp agonist	Sfp PPTase inh	ClpP mod	D2 potentiator	TRPV1 potentiator
O=C1CN(C(=O)COC(=O)C2CC(=O)N(Cc3ccco3)C2)c2ccccc2N1 (stereo not given)	7%	2.4	-19%	-1%	1.7%	-6	9
c1ccc(-c2csc(N3CCOCC3)n2)cc1	-6%	2.2	6%	-9%	0.8%	10	-2
O=C(CSc1nc(=O)n(CCCN2CCOCC2)c2c1CCCC2)Nc1ccc(Cl)cc1	-14%	/	-18%	/	-5.8%	-25	-5
Nc1nnc(/C=C/c2ccccc2)s1	6%	-1.6	-12%[15.4 µM]	1%	/	1	2
O=C(CCC(F)(F)F)N1CCCC(CO)(CCc2ccccc2)C1 (stereo not given)	-4%	0.0	10%	8%	1.0%	0	-1
COc1ccc(/C=C/C(=O)OCC(=O)NCc2ccco2)c(OC)c1	-5%	-0.5	-1%	11%	/	-6	6
COc1cc(/C=C/C(=O)OC[C@H]2O[C@H](OC3(CO)OC(CO)C(O)C3O)[C@H](O)[C@@H](O)[C@@H]2O)ccc1O (stereo not given in full)	7%	/	?	/	-15%	-4	/
c1ccc(C(c2ccccc2)c2ccn[nH]2)cc1	0%	2.9	-28%	-2%	3.5%	-10	4
CCCCN(Cc1cc2cc(OC)ccc2[nH]c1=O)S(=O)(=O)c1ccc(C)cc1	?	-5.1	-9%	-5%	4.2%	-3	-10
Clc1ccc(OCCN2CCCCC2)cc1Cl	21%	-4.8	10%	-6%	1.3%	-31	-3
CC(=O)Nc1cccc(OCCCNC(=O)C2CCC2)c1	8%	6.3	43%	12%	/	0	-8
CCOC(=O)C1CCCN(S(=O)(=O)CCNC(=O)c2ccccc2)C1 (stereo not given)	3%	/	?	/	-2.8%	-4	-5
O=C(N/N=C/c1c(O)ccc2ccccc12)Nc1ccccc1	-7%	/	2%	/	-3.3%	-9	/
O=C1Cc2ccccc2C(=O)N1c1cccc(Cl)c1	3%	/	-6%	6%	/	4	-4
COc1ccc(C(CNC(=O)c2ccc(C)c(S(=O)(=O)N3CCCCC3)c2)N2CCCC2)cc1 (stereo not given)	-12%	/	1%	/	-5.3%	-6	/
Cc1ccc(Cn2ccc(NC(=O)c3nc4ncccn4n3)n2)cc1	0%	0.6	6%	8%	-14%	1	-9
O=C(O)COc1cccc2ccccc12	7%	-0.4	-3%	1%	?	-4	11
Cc1cc(C(=O)COC(=O)c2ccc(O)cc2)c(C)n1CC1CCCO1 (stereo not given)	-52%	-0.5	23%[15.4 µM]	11%	/	3	-11
CCOC(=O)N1CCN(S(=O)(=O)N2CCCC(C(=O)NCc3cc(OC)ccc3OC)C2)CC1 (stereo not given)	/	/	-47%[inhibitor]	/	-0.3%&0.5%	-13	/
O=C(COc1ccccc1[N+](=O)[O-])Nc1ccc(NC(=O)c2cc3ccccc3o2)cc1	-10%	-3.8	13%[15.4 µM]	-27%	/	-3	-10
COc1ccc(NC(=O)c2cc(S(=O)(=O)N(C)C)ccc2N2CCCC2)cc1Cl	-16%	-0.9	-19%	-4%	?	2	0
O=C1Nc2ccccc2N(O)N1c1ccc(Cl)c(Cl)c1	5%	2.4	19%[15.4 µM]	18%	/	-7	1
O=C(O)COCC(=O)NCc1csc2ccc(Cl)cc12	-1%	0.0	-3%[15.4 µM]	5%	/	-7	23
Cc1noc(C)c1S(=O)(=O)N1CCCC1C(=O)NC(C)(C)C (stereo not given)	2%	/	?	9%	2.1%	-3	-1
Cc1cc(C(=O)Nn2c(C3CCCCC3)nc3ccccc3c2=O)ccc1[N+](=O)[O-]	-23%	5.6	-8%	13%	1.3%	-8	1
CCOc1ncccc1C(=O)Nc1ccc2c(C)cc(=O)oc2c1	13%	3.2	-7%	17%	-6.7%	-6	-33
CSc1ccc(S(=O)(=O)Nc2ccc(N3CCOCC3)c(Cl)c2)cc1	?	1.6	20%	1%	-0.9%	-6	0
Cc1cccnc1NC(=O)COc1ccc2oc3c(c2c1)CCCC3	-10%	-0.8	12%	3%	-3.3%	2	-7
O=C(NC1CCS(=O)(=O)C1)Oc1ccc(Cl)cc1 (stereo not given)	9%	3.2	-12%	-2%	2.1%	-10	2
CCC(=O)N1CCCc2ccccc21	2%	1.0	17%	-10%	0.6%	-7	4
c1ccc(-c2nnc(CSc3nnc(-c4cccs4)o3)o2)cc1	-4%	0.3	1%	12%	-8.0%	-5	-5
O=C(NCc1cccnc1)c1ccc(CS(=O)(=O)Cc2ccc(Cl)cc2)o1	-2%	3.0	-3%	7%	1.0%	-4	-13
CCC(CO)NC1=C([N+](=O)[O-])C(=O)CC(C)(C)C1 (stereo not given)	17%	0.5	-30%[inhibitor]	6%	-19%	1	0
O=C(c1ccc2ccccc2c1)N1CCCCC1	6%	2.5	-5%	16%	/	-1	5
COc1ccc(C(=O)OC(C)C(=O)NC(C)CCc2ccccc2)c(OC)c1 (stereo not given)	-7%	-1.9	-13%[15.4 µM]	-6%	/	-6	?
Cn1c(=O)c(=O)n(C)c2cc(S(=O)(=O)CCC(=O)Nc3ccc(F)cc3)ccc21	4%	1.2	2%	-4%	-3.2%&-2.3%	-4	-2
CN(CC(=O)Nc1ccccc1Cl)C(=O)C1CCN(S(=O)(=O)c2ccc3c(c2)OCCO3)CC1	4%	/	7%	/	-8.5%	25	2
Cc1ccc(/C=N/NC(=O)CN2C(=O)CSc3ccccc32)o1	9%	3.1	2%[15.4 µM]	?	-17%	-10	2
COc1cc(C(=O)Nc2cccc(S(=O)(=O)NCc3ccco3)c2)cc(OC)c1OC	-2%	/	-58%[inhibitor]	/	0.9%	1	8
COc1cc(CNc2ccc3[nH]c(=O)[nH]c3c2)ccc1OCc1c(F)cccc1Cl	-18%	3.2	15%[15.4 µM]	1%	-2.2%	-3	-9
O=S(=O)(NCCN1CCN(S(=O)(=O)c2ccccc2F)CC1)c1ccccc1F	7%	/	-4%[15.4 µM]	/	-3.3%	1	/
Cc1ccc(C(=O)N/C(=C\c2cn(C)c3ccccc23)C(=O)NCCCn2ccnc2)cc1	0%	/	-16%	7%	/	-11	19
Cc1ccsc1CNC12CC3CC(CC(C3)C1)C2	-6%	-2.5	17%[15.4 µM]	14%	/	-15	-5
COC(=O)Cc1csc(Nc2ccc(F)c(Cl)c2)n1	-5%	-1.2	-1%[15.4 µM]	?	1.9%	1	-1
CCOC(=O)CSc1nnc(CNc2cccc(Cl)c2)n1C	6%	-0.8	-10%	3%	1.7%	-13	3
O=C1/C(=C/c2ccccn2)SC(=S)N1CCc1ccccc1	-6%	2.8	1%	28%	-1.7%	-18	6
O=C(O)c1cccc(S(=O)(=O)Nc2ccc3c(c2)CCC3)c1	1%	-0.4	2%	2%	-3.9%	-5	15
CSc1ccccc1C(=O)OCC(=O)NC1CCCCCCC1	/	/	-41%[inhibitor]	/	1.5%	0	/
CCn1c(C(=O)N2CCC(C(=O)NCCCSC3CCCCC3)CC2)cc2sccc21	-18%	0.4	18%	9%	-3.0%	-2	-10
COc1ccc([N+](=O)[O-])cc1/C=N/Nc1nn[nH]n1	11%	0.2	?	-12%	/	-4	-2
COc1cc(CNc2cccc3[nH]c(C(F)(F)F)nc23)cc(OC)c1	-17%	6.3	0%	-18%	-3.6%	-12	0
O=C(Nc1nc2ccccc2n1Cc1ccccc1)c1ccc(COc2ccccc2[N+](=O)[O-])o1	0%	1.7	-3%	?	-12%	-19	/
Cc1c(NC(=O)CN2CCN(C(c3ccccc3)c3ccccc3)CC2)c(=O)n(-c2ccccc2)n1C	-21%	7.3	7%	9%	-0.4%	-13	-11
O=C(Cn1c(NCCCCl)nc2ccccc21)c1ccccc1	-3%	/	/	/	2.7%	-19	-10
CCc1ccccc1NC(=O)CCN1C(=O)C2C3CCC(C3)C2C1=O (stereo not given)	4%	-0.7	9%[15.4 µM]	20%	/	0	-14
CCOc1ccc(N(C)S(=O)(=O)c2ccc3[nH]cc(C(=O)NCC4CCCO4)c(=O)c3c2)cc1 (stereo not given)	-18%	-0.5	-9%	17%	-14%	1	-1
COc1cc(NC(=O)CN(C)S(=O)(=O)c2ccc(C)cc2)cc(OC)c1	-17%	-1.9	19%	8%	1.3%	-5	-9
Cc1cc([N+](=O)[O-])ccc1NC(=O)COc1nsnc1N1CCOCC1	1%	-0.4	?	8%	/	-17	1
Nn1c(SCC(=O)Nc2ccc3c(c2)OCCO3)nnc1-c1ccncc1	6%	-5.4	-1%[15.4 µM]	1%	-2.5%	0	-3
CCCCc1ccc(NC(=O)CC(C)C)cc1	1%	2.5	-4%[15.4 µM]	8%	/	-11	-19

Continuation.
SMILES	gsp antagonist	Menin-MLL FL inh	gsp agonist	Sfp PPTase inh	ClpP mod	D2 potentiator	TRPV1 potentiator
O=C(Cn1cc2c(n1)CCCC2)NC1CCCCCC1	4%	-1.7	-13%	9%	0.6%	-1	-6
CC12CCC(C(=O)Nc3ccccc3Cl)(C(Br)C1=O)C2(C)C (stereo not given)	-1%	4.9	-21%	4%	?	0	-3
Cc1ccccc1NC(=O)C(C)n1c2ccccc2c2nc(=O)cc(C)n21 (stereo not given)	-4%	4.9	27%	6%	?	-13	-15
CN(CC(=O)N1CCCCC1)S(=O)(=O)c1cccc2nsnc12	10%	0.2	?	11%	-2.6%	-6	-9
CCC(C(=O)OCC(=O)N1C(C)CCCC1C)c1ccccc1 (stereo not given)	5%	-4.5	20%	0%	/	-3	-1
CCOC(=O)CSc1c(-c2cccs2)[nH]c2ccccc12	-25%	-0.6	-9%[15.4 µM]	15%	1.2%	-6	-3
